Source: PubChem BioAssay
D2 ag – agonists of human D2 dopamine receptor (beta-arrestin); P14416; DiscoveRx PathHunter D2 beta-arrestin, luminescence, 90 min; 100% = 57 uM dopamine signal; activation, % (no concentration beside the values); 0.084% of 360,000 active; AID 624465; in the data active = activation above about 40%; inconclusive = about 15% to 40%; inactive = below about 15%; note: compound concentration not given in the record; the text of the record calls up to 30% inactive
Target sequence (P14416 whole entry, looked up): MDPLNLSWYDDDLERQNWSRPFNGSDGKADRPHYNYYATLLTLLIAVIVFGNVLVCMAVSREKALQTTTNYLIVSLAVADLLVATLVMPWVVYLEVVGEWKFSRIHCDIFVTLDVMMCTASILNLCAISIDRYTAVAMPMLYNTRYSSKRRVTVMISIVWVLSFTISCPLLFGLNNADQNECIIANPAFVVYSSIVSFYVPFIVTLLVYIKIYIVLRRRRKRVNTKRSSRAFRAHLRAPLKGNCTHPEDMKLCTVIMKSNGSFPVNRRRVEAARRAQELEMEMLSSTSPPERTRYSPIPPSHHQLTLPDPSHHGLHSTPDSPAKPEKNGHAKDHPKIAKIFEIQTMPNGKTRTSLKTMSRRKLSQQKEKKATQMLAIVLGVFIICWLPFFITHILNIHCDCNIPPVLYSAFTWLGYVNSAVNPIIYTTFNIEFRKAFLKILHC
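Agonist mode: compounds alone added to overnight-plated D2 PathHunter cells for 90 min at 37 C, with 57 uM final dopamine (EC100) defining full response. Beta-arrestin recruitment detected by chemiluminescent reagent, read after 1 h at ambient temperature.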
D2 PAM – potentiates the human D2 dopamine receptor allosterically. P14416. DiscoveRx D2 beta-arrestin cells, luminescence, 90 min; 100% = 57 uM dopamine signal. potentiation, % (test concentration not listed). 0.23% of 360,000 active; active = potentiation of 50% or more; inconclusive = 30% to 50%; inactive = 30% or less;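 note: compound concentration not given in the record; tested on top of an EC20 dose of dopamine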
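PathHunter D2 cells, attached overnight at 37 deg C, received compound in DMSO plus dopamine at EC20 (50 nM final) for 90 min at 37 deg C. Beta-arrestin recruitment was read as luminescence after 1 h with detection reagent at ambient temperature.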
Six1-Eya2 inh – Six1/Eya2 interaction inhibition; Q15475+O00167; AlphaScreen GST-Six1/His-Eya2 binding, biochemical; hits give low values; control for the full effect not named in the record; activity change, % (concentration not given with the values); 0.56% of 360,000 active; in the data active = activity change below about -65%; inconclusive = about -30% to -65%; inactive = above about -30%; note: % is set by controls: 0 for no effect and ±100 for the full control effect
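Homogeneous AlphaScreen proximity assay pairing GST-Six1 with His-tagged Eya2 (added as 5X mix: 250 nM and 500 nM) in 50 mM Tris pH 8.0, 300 mM NaCl, 1 mM TCEP. Glutathione donor and nickel acceptor beads; 1 h, 37 °C, dark.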
PINK1 expr mod – PINK1 expression modulation | PINK1 immunofluorescence, high-content cytometry, 24 h | Potency, µM (series often up to 76.6 µM), inactives show top-dose activation (PINK1 increase), actives largely listed as activators | 0.2% of 410,000 active | AID 624263; active = well fitted activation curve with a large enough effect; inconclusive = small, poorly fitted or top-dose-only effect; inactive = flat fitted curve, though single readings scatter; cell line not stated here;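 note: potency is the fitted concentration of half-maximal effect; % of control where 0% means no effect; nearly all actives have a fitted effect of over 65% in size; a mitochondrial uncoupler was the plate control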
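Stable cell line, 250 cells/well, 12 h attachment; compounds pinned at 5 concentrations, 24 h; CCCP control. Fixed with nuclear dye, primary antibodies 12 h at 10 degrees C, secondary plus cell stain; laser-scanning cytometer read.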
TRPML1 ag – agonists of human TRPML1 channel. TRPML1-expressing cells, Ca2+ dye fluorescence, FDSS; host cell line not named in the record; reference of the full effect not given here. 0.12% of 410,000 active. activation, % (no concentration beside the values). AID 624414. Q9GZU1; in the data active = activation above about 50%; inconclusive = about 30% to 50%; inactive = below about 30%; note: 0% is about no effect; the text of the record puts the active cut at 80%
Target sequence (Q9GZU1 whole entry, looked up): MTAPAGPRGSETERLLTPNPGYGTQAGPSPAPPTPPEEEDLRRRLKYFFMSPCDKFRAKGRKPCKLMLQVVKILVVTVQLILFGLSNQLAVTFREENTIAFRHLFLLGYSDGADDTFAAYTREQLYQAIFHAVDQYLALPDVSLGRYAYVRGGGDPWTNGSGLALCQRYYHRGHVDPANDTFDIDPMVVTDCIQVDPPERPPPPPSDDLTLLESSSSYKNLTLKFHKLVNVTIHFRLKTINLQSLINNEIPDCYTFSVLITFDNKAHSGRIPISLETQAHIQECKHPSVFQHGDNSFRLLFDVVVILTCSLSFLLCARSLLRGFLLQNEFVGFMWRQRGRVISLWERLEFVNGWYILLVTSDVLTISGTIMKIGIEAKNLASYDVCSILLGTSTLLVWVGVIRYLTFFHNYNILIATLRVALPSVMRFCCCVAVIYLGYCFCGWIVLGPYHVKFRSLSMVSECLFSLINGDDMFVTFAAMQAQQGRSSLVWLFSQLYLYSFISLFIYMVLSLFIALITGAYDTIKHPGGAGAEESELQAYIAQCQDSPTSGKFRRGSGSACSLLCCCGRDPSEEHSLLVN
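Tetracycline-induced TRPML1-DL cells are seeded and incubated overnight before loading with a no-wash Ca2+ dye and quencher. Agonist activity is taken from the 110 s fluorescence read following compound pin-transfer on an FDSS, before EC80 54-4 challenge.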
CtBP-E1A inh – blocks the CtBP interaction with E1A | AlphaScreen GST-E1A/His-CtBP binding, 1536-well; hits give low values; control for the full effect not named in the record | activity change, % (concentration not given with the values) | 0.49% of 340,000 active | AID 651724; in the data active means activity change below about -65%; inconclusive means about -30% to -65%; inactive means above about -30%; note: % is set by controls: 0 for no effect and ±100 for the full control effect
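AlphaScreen with 125 nM GST-E1A and 125 nM His-CtBP (5X stocks) in Tris pH 8.0, 300 mM NaCl, BSA, Tween 20, TCEP. Compounds preincubated 2 h at 37 deg C, then glutathione donor/nickel acceptor beads added for 1 h at 37 deg C in dark.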
Starred values were filed as active, the others as inactive; ? = inconclusive; · = no result given; & = joins results of further samples; [ ] = dose if it differs, or a comment.

SMILES	D2 ag	D2 PAM	Six1-Eya2 inh	PINK1 expr mod	TRPML1 ag	CtBP-E1A inh
COc1ccc(NC(=O)NCc2ccncc2)cc1	3.0	-26	1	7.8%	-0.5	12
COc1ccc(S(=O)(=O)CCC(=O)N2CCN(c3ccc(F)cc3)CC2)cc1	-1.6	-8	0	0.4%	0.5	·
O=C(NCc1ccc(F)cc1)C1CCCN(c2nc3ccsc3c(=O)s2)C1 (stereo not drawn)	-3.7	-10	-10	4.2%	-0.2	·
Cc1cc(C)n(-c2ccc(C)c(Cl)c2)n1	-3.1	-16	4	4.1%	-0.6	-8
OCCCNC(=S)Nc1ccc2nccnc2c1	-1.6	-1	?	-0.8%	0.0	?
Cc1nc2ccccc2c(=O)n1NC(=O)C1CC1C (stereo not drawn)	-2.9	-7	1	-0.5%	-0.6	·
Cc1cccc(C(=O)Nc2sc3c(c2C(=O)O)CCCC3)c1	-3.3	1	4	1.3%&-2.0%	1.7&-0.5	-11
Cc1nn(Cc2ccccc2)c2c1C(c1ccc(Cl)cc1)C(C#N)=C(N)O2 (stereo not drawn)	-3.9	-24	-3	3.6%[38.3 µM]	0.8	-25
COc1ccc(OCCCC(=O)Nc2cccc([N+](=O)[O-])c2)cc1	-2.1	-7	-12	1.0%	1.7	-3
COC(=O)c1cc(C(=O)OCC(=O)NC(=O)c2ccccc2)cc([N+](=O)[O-])c1	-1.7	5	5	2.7%	1.2	7
CCn1nnnc1-c1ccc(OC)c(S(=O)(=O)NCCc2ccccc2)c1	-1.2	-6	1	-4.4%[38.3 µM]	-0.8	3
Cn1cnc([N+](=O)[O-])c1NC(C)(C)C	-1.4	0	9	-1.0%	-0.9	6
O=C(NCc1cccs1)c1csc2c1CCCCC2	1.2	-14	6	-3.5%[38.3 µM]	0.0	15
O=C1N[C@H]2CC=C[C@H]2N(Cc2cccs2)c2ccccc21	0.6	·	3	0.2%	-0.8	4
Cc1cc(C(=O)OC(C)C(=O)NC2CCCCC2)c(C)o1 (stereo not drawn)	-4.8	-23	-4	-0.3%	0.6	8
O=C(CCCc1c[nH]c2ccccc12)NCc1ccccc1C(F)(F)F	-2.7	-14	-16	0.4%	1.1	·
COc1ccc(CNc2oc(Cc3cccc4ccccc34)nc2C#N)cc1	-10	-1	-16	-2.5%	-0.2	-22
COc1ccc(C)cc1C(=O)C1CC(C(=O)O)C(C)(C)C1C (stereo not drawn)	0.2	-14	0	0.1%	-1.0	3
COc1ccc(/C=C2\SC(=S)N(c3cccnc3)C2=O)cc1	1.7	-4	-2	8.2%	0.5	·
CCOC(=O)C1=C(COC(=O)CCc2ccccc2)NC(=O)NC1C (stereo not drawn)	0.0	-1	2	2.3%	2.1	0
COC(=O)[C@@]1(Sc2ccc(C)cc2)CC(=O)N[C@@H]1c1ccccc1	·	·	0	1.0%	-0.5	8
Cc1c(C(=O)Nc2ccc(F)cc2)oc2ccc(S(=O)(=O)N3CCCC3)cc12	-4.7	-5	4	0.4%	0.3	-2
Cc1cccc(S(=O)Cc2ccc(C(=O)NC3CCN(Cc4ccccc4)CC3)o2)c1 (stereo not drawn)	-7.4	-35	-1	-0.7%	-0.2	2
O=C(NCc1cccc(F)c1)c1noc2c1CCCC2	0.9	-8	-1	2.9%	-1.3	5
COc1ccc(N2CCN(c3ccc(NC(=O)C4CCCCC4)cc3C#N)CC2)cc1	0.2	-7	-1	5.7%	0.0	11
Cc1cc(C(=O)N2CCCC(C(=O)c3ccc4ccccc4c3)C2)nn1C (stereo not drawn)	-5.2	-8	-3	0.8%	0.5	0
COC(=O)/C(C#N)=C1/C=Cc2ccccc2N1	2.1	1	7	-0.1%	-0.5	16
CC(C)CCC(=O)N1CCC(N2CCC(C(=O)NCc3ccccn3)CC2)CC1	1.8	-3	2	0.2%	-0.6	4
CN(C(=O)c1ccc(NC(=O)Cc2cccc(NC(=O)C3CCN(C(=O)C4CC4)CC3)c2)cc1)C1CCCC1	0.1	-2	0	0.9%	0.4	1
COCCCN(C(=O)CSCC(=O)Nc1ccc(C)cc1)c1c(N)n(Cc2ccccc2)c(=O)[nH]c1=O	-3.4	4	-3	0.7%	0.0	·

A different layout for some results above.
Screens in order: D2 ag	D2 PAM	Six1-Eya2 inh	PINK1 expr mod	TRPML1 ag	CtBP-E1A inh
- O=C(CCCc1c[nH]c2ccccc12)NCc1ccccc1C(F)(F)F
 : -2.7	-14	-16	0.4%	1.1	·
- COc1ccc(CNc2oc(Cc3cccc4ccccc34)nc2C#N)cc1
 : -10	-1	-16	-2.5%	-0.2	-22
- COc1ccc(C)cc1C(=O)C1CC(C(=O)O)C(C)(C)C1C (stereo not drawn)
 : 0.2	-14	0	0.1%	-1.0	3
- COc1ccc(/C=C2\SC(=S)N(c3cccnc3)C2=O)cc1
 : 1.7	-4	-2	8.2%	0.5	·
- CCOC(=O)C1=C(COC(=O)CCc2ccccc2)NC(=O)NC1C (stereo not drawn)
 : 0.0	-1	2	2.3%	2.1	0
- COC(=O)[C@@]1(Sc2ccc(C)cc2)CC(=O)N[C@@H]1c1ccccc1
 : ·	·	0	1.0%	-0.5	8
- Cc1c(C(=O)Nc2ccc(F)cc2)oc2ccc(S(=O)(=O)N3CCCC3)cc12
 : -4.7	-5	4	0.4%	0.3	-2
- Cc1cccc(S(=O)Cc2ccc(C(=O)NC3CCN(Cc4ccccc4)CC3)o2)c1 (stereo not drawn)
 : -7.4	-35	-1	-0.7%	-0.2	2
- O=C(NCc1cccc(F)c1)c1noc2c1CCCC2
 : 0.9	-8	-1	2.9%	-1.3	5
- COc1ccc(N2CCN(c3ccc(NC(=O)C4CCCCC4)cc3C#N)CC2)cc1
 : 0.2	-7	-1	5.7%	0.0	11
- Cc1cc(C(=O)N2CCCC(C(=O)c3ccc4ccccc4c3)C2)nn1C (stereo not drawn)
 : -5.2	-8	-3	0.8%	0.5	0

Going on with the list.
SMILES	D2 ag	D2 PAM	Six1-Eya2 inh	PINK1 expr mod	TRPML1 ag	CtBP-E1A inh
CCN(CC)S(=O)(=O)c1ccc(N2CCOCC2)c(NC(=O)COc2ccc(Cl)cc2)c1	2.0	-1	7	-0.8%	1.4	·
CC1CN(C(=O)CCC(=O)NC2CCCCC2)c2ccccc2S1 (stereo not drawn)	-3.4	-4	0	-3.0%	4.1	3
Cc1ccc(C)c(S(=O)(=O)NCCC(=O)N2CCCC(C(N)=O)C2)c1 (stereo not drawn)	-1.8	0	12	2.3%	-0.3	·
NC(=O)c1ccc(NC(=O)CSc2nnc(-c3cccnc3)n2Cc2ccco2)cc1	-0.8	-6	-5	0.4%	1.5	·
CSc1ccc(CN(C)C(=O)CNC(=O)c2ccc3c(c2)OCO3)cc1	-2.7	-20	-3	-3.1%	-0.3	20
CN1CCN(C(=O)c2cc3ccccc3oc2=O)CC1	-2.1	-8	4	-2.1%	0.8	7
O=C(O)c1cccc(NC(=S)N/N=C/c2ccccc2OCc2cccc(Br)c2)c1	-5.2	-5	-15	11%	1.8	0
O=C(C1CCCCC1)N1CCN(c2ccccc2F)CC1	0.4	-6	-3	0.4%	-0.4	7
O=C(CCc1nnc(COc2ccccc2)o1)NCCc1cccs1	-2.3	-4	-1	-0.2%	0.6	·
CC(=O)Nc1ccc(NC(=O)CSC2=NS(=O)(=O)c3ccccc3N2)cc1	-2.5	-1	-7	-1.6%	0.3	0
COc1ccccc1NC(=O)C(C)OC(=O)/C(=C/c1ccccc1)NC(C)=O (stereo not drawn)	-2.2	21	0	-2.2%	-0.6	20
COC(=O)[C@]12CCCCC=C1N(Cc1ccc(Cl)cc1Cl)C(=O)[C@H](CC(=O)NCCCN1CCCC1=O)C2	·	·	7	-0.1%	1.0	-18
CC(=O)NCCCc1nc2ccccc2n1Cc1c(F)cccc1Cl	-3.6	-7	-8	1.4%	-0.4	-8
O=C(Cn1cnc2ccccc2c1=O)c1ccc(Cl)cc1	-0.6	-6	-4	1.5%	2.1	·
O=C(NCc1ccc(Cl)cc1)C1CCC(=O)N(C2CCCCCC2)C1 (stereo not drawn)	-2.7	8	3	2.4%	0.6	-2
Nc1ccc(S(=O)(=O)NN=Cc2ccccc2[N+](=O)[O-])cc1	4.2	-9	-1	2.1%	0.6	0
COc1ccccc1CC(NC(C)=O)C(=O)NC1CCN(C(=O)Nc2ccccc2Cl)CC1 (stereo not drawn)	0.5	-9	3	-1.1%	0.4	·
Cc1cc(NC(=O)CSc2cc(C)c3ccccc3n2)no1	-1.1	-4	2	3.0%	-0.4	1
CCOc1ccc2nc(NC(=O)Nc3cccs3)sc2c1	4.6	6	-4	?	-1.3	3
CC(Oc1ccc2oc(-c3ccccc3)c(C(=O)O)c2c1)C(=O)O (stereo not drawn)	0.9	-3	3	-3.2%	-0.1	-6
Cc1nc2nc(-c3ccco3)[nH]n2c(=O)c1C	-0.7	10	0	0.8%[38.3 µM]	0.6	7
O=C(NC1CCC(C(=O)O)CC1)OCc1ccccc1 (stereo not drawn)	1.2&-3.7&-3.5	-6&0&-22	8&-7&8	-0.4%&5.1%&3.4%	-0.1&-0.4&0.0	0&7&9
CCN(CC)S(=O)(=O)c1ccc(N2CCOCC2)c(NS(=O)(=O)c2ccc(OC)cc2)c1	0.0	-6	4	2.2%	·	0
CN1CCCN(C(=O)CC2(CC(=O)O)CCCC2)CC1	-1.6	-2	2	1.0%	0.2	7
Cc1ccc(OCc2ccc([N+](=O)[O-])cc2)c([N+](=O)[O-])n1	4.5	-10	2	-0.4%	-0.4	5
OCC1(Cc2cccc(C(F)(F)F)c2)CCN(Cc2cc3ccccc3o2)CC1	51*	12	-9	2.7%	-0.3	-1
CCOC(=O)c1c(NC(=O)c2nn(CC)cc2Br)sc2c1CCCCC2	1.2	-25	7	2.4%[38.3 µM]	1.0	12
NC(=O)[C@@H]1CCCN1Cc1nc(-c2cccs2)no1	1.2	-3	0	0.2%	0.1	-9
CC[C@]12c3[nH]c4cc(-c5ccco5)ccc4c3CCN1C(=O)[C@@H](CC(=O)NCc1cccc(C(F)(F)F)c1)C[C@@H]2C(=O)N1CCN(C(=O)c2ccco2)CC1	0.0	-3	-12	1.1%	3.3	-8
C#CCN(C[C@H]1[C@H](OC(=O)NC2CC2)[C@H](OC(=O)NC2CC2)C[C@@H](C(=O)OC)[C@H]1C(=O)OC)S(=O)(=O)c1ccc(C)cc1	-7.2	0	-1	0.0%	-0.5	-20
CCOc1cc(C(=S)N2CCCC2)ccc1OCC(=O)Nc1c(C)cc(C)cc1C	-6.0	-4	0	1.7%	1.5	1
COc1cc(SC)ccc1C(=O)Nc1cc(C)c(OCC(=O)N2CCOCC2)c(C)c1	0.1	-3	-3	2.4%	0.1	-4
O=C(CCCc1c[nH]c2ccccc12)N1CCCCCC1	-6.5	-2	-7	-1.4%	-0.5	-3
Cc1cc2nc3c(nc2cc1C)CCCC3	1.6	-21	0	-0.5%	-0.2	·
CSc1ccccc1NC(=O)CN1CCCCC1	-12	-8	-24	2.3%	-0.6	2
Cc1ccc(C(NC(N)=O)c2ccccc2)cc1 (stereo not drawn)	1.0	-2	2	-2.8%[38.3 µM]	-0.1	3
